Source: PubChem BioAssay (several laboratories)
Calb FLC = affects C. albicans growth with fluconazole. C. albicans CaCi-2 (fluconazole-resistant clinical isolate) + fluconazole, Alamar Blue growth, 48 h. growth inhibition, % (test concentration not listed). hit rate 0.57% among 300,000. AID 1979;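 active = most replicates above 75%; inconclusive = exactly half above 75%; inactive = most below 75%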;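 also: all wells also contain fluconazole at 8 µg/ml as a sub-toxic cotreatment; 0% = median of DMSO wells and 100% = median of geldanamycin control wells; wells of about 8 µL received 7.5 nL stock; the first replicate is given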
LANA-H2A inh = blocks KSHV LANA binding to histone H2A/H2B; cell-free LANA-H2A/H2B peptide, fluorescence polarization; AID 2629; Q9QR71; hit rate 0.6% among 320,000; inhibition, % (test concentration not listed); in the data active = inhibition mostly above about 10%, no sharp cut-off; inactive = mostly below about 6.7%;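 also: stock transfer was 7.5 nL into about 10 µL; 0% = median of vehicle wells and 100% = median of positive control wells; one replicate is shown; the record names a cut of 25% in any replicate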
Target sequence (Q9QR71 whole entry, looked up): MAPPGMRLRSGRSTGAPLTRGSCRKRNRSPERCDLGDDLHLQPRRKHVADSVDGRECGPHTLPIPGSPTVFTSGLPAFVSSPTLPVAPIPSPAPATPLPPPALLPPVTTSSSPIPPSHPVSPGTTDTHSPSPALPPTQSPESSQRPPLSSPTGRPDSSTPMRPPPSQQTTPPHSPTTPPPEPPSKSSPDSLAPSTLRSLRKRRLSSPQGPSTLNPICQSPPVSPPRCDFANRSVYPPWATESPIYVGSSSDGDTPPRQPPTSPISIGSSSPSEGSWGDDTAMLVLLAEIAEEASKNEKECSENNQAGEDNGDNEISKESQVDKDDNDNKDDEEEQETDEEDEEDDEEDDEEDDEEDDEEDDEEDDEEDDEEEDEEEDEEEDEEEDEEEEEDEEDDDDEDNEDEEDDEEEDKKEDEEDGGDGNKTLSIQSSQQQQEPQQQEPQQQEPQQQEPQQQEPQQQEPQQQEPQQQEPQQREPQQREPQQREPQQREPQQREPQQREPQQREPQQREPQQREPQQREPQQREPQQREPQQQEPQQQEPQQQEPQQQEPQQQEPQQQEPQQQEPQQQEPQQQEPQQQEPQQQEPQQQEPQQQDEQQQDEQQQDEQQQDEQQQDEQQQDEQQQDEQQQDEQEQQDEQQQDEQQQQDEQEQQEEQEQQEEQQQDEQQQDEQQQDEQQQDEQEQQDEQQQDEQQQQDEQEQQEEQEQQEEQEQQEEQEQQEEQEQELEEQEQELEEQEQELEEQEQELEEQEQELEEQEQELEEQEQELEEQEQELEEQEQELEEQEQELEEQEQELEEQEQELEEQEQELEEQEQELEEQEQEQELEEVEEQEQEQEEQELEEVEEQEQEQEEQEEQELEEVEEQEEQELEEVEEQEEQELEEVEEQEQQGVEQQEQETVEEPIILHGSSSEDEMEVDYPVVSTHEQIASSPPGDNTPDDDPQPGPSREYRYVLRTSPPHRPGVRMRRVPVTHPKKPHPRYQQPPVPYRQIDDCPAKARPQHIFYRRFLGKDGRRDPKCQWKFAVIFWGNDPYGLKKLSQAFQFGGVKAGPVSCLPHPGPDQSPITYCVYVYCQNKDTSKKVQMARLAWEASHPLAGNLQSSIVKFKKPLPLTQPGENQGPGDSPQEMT
rRNA inh HTS = inhibitors of bacterial rRNA selective over humanized ribosomes; AID 720706; E. coli WT GFP vs humanized-ribosome RFP mutants, fluorescence, 24 h; stronger effect = lower value; DMSO median 0, no signal -100; GFP signal change (wild-type ribosome), % (no concentration beside the values); hit rate 1.6% among 350,000;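 active = significant combined selectivity score with lowered wild-type GFP, culture density cut under 30%, mutant RFP and density less affected; inactive = any of these conditions unmet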; also: one replicate is shown; some compounds called inactive have numbers as strong as hits
Beta apoptosis = blocks beta cell apoptosis; INS-1E cytokine-induced death, ATP luminescence, 48 h; percent of positive-control rescue, neutral wells zero; protection from apoptosis, % (concentration not given with the values); hit rate 0.8% among 300,000; AID 435005;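 active = all replicates at 75% or more, or half of them and the mean; inconclusive = half reach 75% but not the mean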;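 also: 0% = cytokine-treated negative control wells and 100% = positive control rescue; higher means more ATP so stronger rescue from cytokine killing; wells of about 40 µL received 100 nL stock; the first replicate is given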
T cruzi repl = T. cruzi replication inhibition; AID 1885; hit rate 1.4% among 300,000; inhibition, % (no concentration beside the values); T. cruzi beta-gal in NIH3T3, luminescence, 90 h;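 active = mean inhibition across valid replicates above about 55%, limit read from the data; inconclusive = mean below that limit but half or more replicates reach it; inactive = mean below it, under half of replicates reach it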;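 also: signal also drops with host cell toxicity which is not excluded here; 0% = plate median of DMSO wells and 100% = zero luminescence signal; higher percent means less beta-gal luminescence so fewer parasites; stock transfer was 50 nL into about 50 µL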
A1 inh = inhibitors of the anti-apoptotic protein A1, read as caspase activation; MEF A1-2A-BIM cells, Caspase-Glo 3/7 luminescence, 3 h; percent of clofoctol response, vehicle zero; caspase activation, % (test concentration not listed); hit rate 0.066% among 330,000; AID 2462;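 active = over half of replicate activation scores above 10%, or exactly half above 10 with the replicate mean above 10; inconclusive = replicate mean below 10 yet half the replicates above 10; inactive = over half of replicates below 10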;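 also: wells of about 30 µL received 50 nL stock; many hits fall short of the cut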
ALR inh = inhibitors of human sulfhydryl oxidase ALR | inhibition, % (no concentration beside the values) | hit rate 3.8% among 290,000 | purified ALR, DTT oxidation, H2O2 HRP-luminol luminescence;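 active = mean and each replicate at 75% or more; inconclusive = only one of the two met; inactive = neither met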;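 also: stock transfer was 7.5 nL into about 7.5 µL; 0% = neutral wells and 100% = wells with inactivated enzyme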
Beta2AR agonist = agonists of human beta-2 adrenergic receptor inducing internalization | response, % (test concentration not listed) | hit rate 0.43% among 340,000 | Am2.2-beta2AR cells, FAP receptor internalization, flow cytometry; reference of the scale not given here | P07550;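 active = response above a set limit, near 3 SD of response in nonfluorescent compounds, cut at about 42% in these data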;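 also: stock transfer was 100 nL into about 11 µL; a reference agonist was the positive control; negative values mostly stem from fluorescent compounds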
rRNA inh HTS OD600 = recorded beside rRNA inh HTS, whose call it bears; OD600 change, %; measured here: OD600 growth;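 optical density of the mix in the first replicate; 0 = DMSO median and -100 = no signal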
rRNA inh HTS RFP = recorded beside rRNA inh HTS, whose call it bears; RFP signal change, %; measured here: RFP humanized mutant strains;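 first replicate; 0 = DMSO median and -100 = no signal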
* hit, by the source's call; ? = inconclusive; . = not tested or not shown. Not all compounds are listed; rates above refer to the full screens.

SMILES	Calb FLC	LANA-H2A inh	rRNA inh HTS	rRNA inh HTS OD600	rRNA inh HTS RFP	Beta apoptosis	T cruzi repl	A1 inh	ALR inh	Beta2AR agonist
COC(C(=O)N1CCC(CCC(=O)Nc2ccccc2)CC1)c1ccccc1 (centres undefined)	8.4	1.2	-2.5	-3.7	-0.8	-0.8	5.8	-0.1	-11.5	10.3
Cc1ccc(S(=O)(=O)N(C)CC(=O)OCC(=O)N2CCN(c3ccccc3)CC2)cc1	-27.9	-4.0	-1.8	-8.2	-4.0	2.6	1.9	-0.7	4.8	-2.2
CCOC(=O)C1CCCN(C(=O)CCn2nc(-c3ccccc3)ccc2=O)C1 (centres undefined)	-7.2	-1.7	-6.6	-10.6	12.7	-8.8	-4.5	-0.1	-18.7	-0.1
COc1ccc(/C=N/NC(=O)CNS(=O)(=O)c2ccc(C)cc2)cc1	0.3	-7.5	8.2	11.9	0.3	-3.7	-0.7	-0.4	-1.6	-2.2
COc1ccc(NS(=O)(=O)c2cccc(C(=O)NCC3(N(C)C)CCCCC3)c2)cc1	1.1	-1.3	4.8	2.4	-0.1	-5.6	-9.2	0.9	8.8	-5.8
CCNC(=O)c1ccccc1-c1nc(-c2ccccc2)no1	-4.8	2.0	6.6	8.9	-0.9	3.2	-2.3	0.2	-4.9	1.7
COCC1CCN(C(=O)c2cc(COc3ccc(C)c(C)c3)on2)C1 (centres undefined)	6.4	-1.9	-0.7	4.2	1.0	-2.8	-4.1	0.1	-7.5	5.8
O=C(COC(=O)CSc1ccc([N+](=O)[O-])cc1)NCc1cccs1	-4.6	-1.2	-0.5	12.2	-2.0	2.3	0.5	0.3	48.7	-11.9
CCOC(=O)c1c(-c2ccc(OC)cc2)csc1NC(=O)C1CCCO1 (centres undefined)	-4.4	21.4	-22.5	-30.0	-7.9	5.0	7.0	-0.7	-4.6	-3.5
COc1ccc(Nc2ncccc2C(=O)O)cc1	-7.5	0.8	.	.	.	0.7	-2.4	-4.1	53.5	0.3
CC12C(=O)N(n3cnnc3)C(=O)C1C1C=CC2C1 (centres undefined)	?	-3.4	.	.	.	-2.7	-8.3	-0.1	-3.2	8.0
COC(=O)c1ccc(N(C(=O)CNC(=O)c2ccco2)C(C(=O)NCC2CCCO2)c2ccc(OC)c(OC)c2)cc1 (centres undefined)	-4.5	-1.6	5.6	7.4	-0.9	-2.4	-4.8	-0.4	-0.8	-9.8
C/C(=N\NC(=O)CSCc1ccccc1Br)c1cccc([N+](=O)[O-])c1	19.7	-4.7	4.7	17.6	4.4	1.6	-42.5	0.4	-3.8	-6.5
COc1ccc(NC(=O)C(C)N2C(=O)c3ccccc3S2(=O)=O)c(OC)c1 (centres undefined)	1.8	3.8	7.4	6.9	1.8	-0.3	1.1	0.4	0.4	-4.7
COCc1cc(=O)[nH]c(/N=C(\N)Nc2cccc(C)c2)n1	1.4	3.4	.	.	.	5.1	-2.8	0.2	6.1	-14.0
COc1ccc(NC(=S)N2CCN(c3ncccn3)CC2)c(OC)c1	24.7	-0.4	2.8	0.1	-0.5	2.4	-23.3	0.6	13.2	3.4
COC(=O)c1cccc(NC(=S)NC(C)C)c1	?	-0.1	3.6	1.3	-9.3	0.4	-4.0	0.8	-3.9	-1.5
COc1cccc(CN2CCSCC2)c1	-5.3	0.3	7.1	-4.9	5.0	-0.6	-8.6	-0.3	-8.3	0.9
CCCn1c(N)c(CC)c(=O)[nH]c1=O	0.6	-2.3	18.6	11.9	2.9	-3.6	.	0.0	-1.1	-7.5
Cc1cccn2c(CN3CCSCC3)c(C(=O)N3CCOCC3)nc12	-7.6	-0.8	6.7	11.8	1.5	-1.4	-9.8	0.1	-16.6	-1.8
O=C(C1CCCN1S(=O)(=O)c1ccc(Cl)cc1)N1CCOCC1 (centres undefined)	13.1	2.1	.	.	.	-2.7	-5.3	-1.4	3.6	-5.4
O=C(CSc1nnc(CNc2ccc(F)cc2)n1-c1ccccc1)N1CCOCC1	3.1	0.5	.	.	.	-2.2	-17.0	0.5	5.6	-0.6
CCOc1ncccc1C(=O)N1CCCSC1=Nc1ccccc1OC	-1.5	0.1	2.2	9.4	-3.9	1.9	-4.4	-0.1	-24.6	3.6
CCOC(=O)C1(CCOC)CCN(Cc2ccc(C3CCCCO3)s2)CC1 (centres undefined)	-17.2	2.9	.	.	.	-0.1	-12.7	-0.1	-2.0	5.4
CCOC(=O)c1c(NC(=O)COC(=O)Cn2c(C)nc3ccccc32)sc2c1CCCC2	46.3	0.4	.	.	.	-2.7	9.9	-0.1	2.8	2.9

Single records, as listed above:
Results for `CCOC(=O)C1(CCOC)CCN(Cc2ccc(C3CCCCO3)s2)CC1` (centres undefined) : Calb FLC = -17.2; LANA-H2A inh = 2.9; rRNA inh HTS = .; rRNA inh HTS OD600 = .; rRNA inh HTS RFP = .; Beta apoptosis = -0.1; T cruzi repl = -12.7; A1 inh = -0.1; ALR inh = -2.0; Beta2AR agonist = 5.4
Results for `CCOC(=O)c1c(-c2ccc(OC)cc2)csc1NC(=O)C1CCCO1` (centres undefined) : Calb FLC = -4.4; LANA-H2A inh = 21.4; rRNA inh HTS = -22.5; rRNA inh HTS OD600 = -30.0; rRNA inh HTS RFP = -7.9; Beta apoptosis = 5.0; T cruzi repl = 7.0; A1 inh = -0.7; ALR inh = -4.6; Beta2AR agonist = -3.5
Results for `CCOc1ncccc1C(=O)N1CCCSC1=Nc1ccccc1OC` : Calb FLC = -1.5; LANA-H2A inh = 0.1; rRNA inh HTS = 2.2; rRNA inh HTS OD600 = 9.4; rRNA inh HTS RFP = -3.9; Beta apoptosis = 1.9; T cruzi repl = -4.4; A1 inh = -0.1; ALR inh = -24.6; Beta2AR agonist = 3.6

Returning to the listing; the 2 compounds before the break are reprinted first.
SMILES	Calb FLC	LANA-H2A inh	rRNA inh HTS	rRNA inh HTS OD600	rRNA inh HTS RFP	Beta apoptosis	T cruzi repl	A1 inh	ALR inh	Beta2AR agonist
CCOC(=O)C1(CCOC)CCN(Cc2ccc(C3CCCCO3)s2)CC1 (centres undefined)	-17.2	2.9	.	.	.	-0.1	-12.7	-0.1	-2.0	5.4
CCOC(=O)c1c(NC(=O)COC(=O)Cn2c(C)nc3ccccc32)sc2c1CCCC2	46.3	0.4	.	.	.	-2.7	9.9	-0.1	2.8	2.9
Cc1cc(SCc2ccc(C(F)(F)F)cc2)nc(=O)[nH]1	-2.4	0.9	-12.8	-9.3	2.8	-0.4	-18.4	-1.3	-6.8	3.5
CCOC(=O)c1c(N)sc(C(=O)N(C)C)c1C	-0.5	0.5	.	.	.	-6.7	-1.5	0.2	0.7	-4.2
O=C(Nc1nc2ccc(S(=O)(=O)N3CCCCC3)cc2s1)c1cccnc1	35.5	-20.3	4.8	5.6	1.6	-0.8	.	-0.6	2.2	16.9
CS(=O)(=O)N(Cc1ccccc1)c1ccc(C(=O)N2CCc3ccccc3C2)cc1	3.1	0.4	.	.	.	-6.2	3.5	-0.5	-23.0	1.9
C=CCn1c(SCC(=O)Nc2ccccc2F)nnc1C(C)NC(=O)c1ccccc1F (centres undefined)	0.1	-5.3	3.8	6.7	-0.6	-5.4	5.2	0.0	1.2	-0.1
Cn1cc(CN2CCN(CCc3ccccc3)C(CCO)C2)cn1 (centres undefined)	-11.7	-2.0	5.3	15.6	-0.9	-5.4	7.3	1.6	0.2	-1.3
CC(=O)N1CCc2cc(S(=O)(=O)CCC(=O)Nc3cc(C)cc(C)c3)ccc21	-3.3	-2.2	0.9	-15.1	-4.8	.	7.9	1.2	0.2	7.5
Cc1cccc(NC(=O)Cc2cccs2)n1	-14.2	0.9	.	.	.	0.8	-18.0	-1.3	-5.0	1.0
CC(C#N)(NC(=O)CN1CCN(S(=O)(=O)c2ccccc2C#N)CC1)C1CC1 (centres undefined)	.	1.5	7.9	8.8	-0.9	-4.6	.	?	.	-7.1
CC(C)CC(NS(=O)(=O)c1ccc2[nH]c(=O)c(=O)[nH]c2c1)C(=O)O (centres undefined)	-0.2	2.2	11.3	10.3	-3.4	-5.8	-14.3	0.3	-4.7	-7.7
CCC(C)c1ccccc1N1CC(C(=O)Nc2cccc(S(=O)(=O)N3CCOCC3)c2)CC1=O (centres undefined)	7.9	6.5	14.7	11.1	2.1	2.1	-9.7	-0.2	-2.3	6.1
O=C1NCCCN1Cc1ccc(F)cc1	-3.6	-1.7	.	.	.	-11.2	-3.7	-0.2	-6.4	-10.8
CCOc1ccc(C(=O)c2cc3ccc(O)cc3oc2=O)cc1	42.0	-0.5	-26.0	-39.0	-3.4	-5.5	1.3	-0.5	55.3	-1.6
C=CCOc1ccc(CNC(C)(C)CO)cc1OC	1.1	-4.7	.	.	.	-2.8	-13.5	0.3	-15.5	0.9
COc1ccc(-n2nc(C(=O)NCC(=O)NCCCN3CCOCC3)c3ccccc3c2=O)c(OC)c1	3.6	3.2	0.7	5.6	-1.3	-3.7	-10.6	-0.3	6.7	-1.0
CC(C)NC(=O)/C(=C/c1cn(-c2ccccc2)nc1-c1cccc([N+](=O)[O-])c1)NC(=O)c1ccccc1	2.6	-5.5	.	.	.	7.5	1.6	1.0	-2.8	-20.9
CC1CC2C3CCC4=CC(=O)C=CC4(C)[C@@]3(Cl)C(O)CC2(C)C1(O)C(=O)CO (some centres undefined)	.	-1.9	-12.4	-16.6	-3.8	-4.1	6.9	-0.4	-27.7	-5.3
CCCOc1ccc(C(=O)CCCC(=O)c2ccc(OCCC)cc2)cc1	-12.4	-3.1	1.4	3.5	0.7	.	15.4	0.1	2.6	-7.5
COc1ccccc1NS(=O)(=O)c1cc(C(=O)N2CCCCCCC2)ccc1C	7.9	2.0	-18.7	-34.6	-2.3	4.3	21.5	-0.7	2.8	9.6
C=CCn1c(C(C)NC(=O)c2cccc(C)c2)n[nH]c1=S (centres undefined)	?	-1.7	1.2	2.5	-1.9	4.5	-3.0	0.6	93.0*	3.6
N=C(N)SCP(=O)(c1ccccc1)c1ccccc1	-4.2	-1.3	14.2	5.0	-1.7	-26.6	6.0	0.5	9.2	6.9
Cc1nn(-c2ccccc2)c2nc(=O)n(-c3ccccc3)cc12	2.6	-2.4	.	.	.	-5.5	2.7	0.3	-6.8	5.3
Cc1ccc(NC(=O)c2cnn(-c3ccccc3)c2NC(=O)c2ccco2)cc1	-3.8	4.0	.	.	.	3.8	3.2	-1.0	1.6	9.8
CC(=O)Nc1ccc(S(=O)(=O)Nc2ccc3c(c2)OCCO3)cc1Cl	-5.0	-0.1	-1.1	-1.7	1.5	11.2	-50.7	0.4	4.1	3.5
CC(C)OCCCn1c(=O)c2ccccc2n2c(CCC(=O)O)nnc12	.	-2.0	11.2	27.0	0.8	-7.3	-15.6	2.3	-2.5	3.7
COc1ccccc1Nc1ncc(C(=O)Nc2ccc(OC)c(OC)c2)c2ccccc12	14.0	-3.1	.	.	.	10.7	-15.8	0.2	7.5	11.9
N#CC[C@H](Cc1ccccc1)N1CCN(CCc2ccccc2)CCC1=O	-32.6	5.3	3.7	16.4	12.3	6.6	-3.6	0.4	-17.9	-6.3
